Bioassay records from PubChem BioAssay.
PABP FP inh – blocks human PABP binding to poly(A) RNA. P11940. fluorescence polarization. inhibition, % at 35 µM. hit rate 1% among 290,000. AID 2014;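 active = 50% or more with normal probe brightness, or confirmed in later tests; about a fifth of its hits are not listed in these tables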;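 also: calls also rest on retests at 20 µM and on dose response follow-up; controls were probe without protein and protein plus probe with vehicle; some compounds called inactive have numbers as strong as hits; many hits fall short of the cut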
Target sequence (P11940 whole entry, looked up): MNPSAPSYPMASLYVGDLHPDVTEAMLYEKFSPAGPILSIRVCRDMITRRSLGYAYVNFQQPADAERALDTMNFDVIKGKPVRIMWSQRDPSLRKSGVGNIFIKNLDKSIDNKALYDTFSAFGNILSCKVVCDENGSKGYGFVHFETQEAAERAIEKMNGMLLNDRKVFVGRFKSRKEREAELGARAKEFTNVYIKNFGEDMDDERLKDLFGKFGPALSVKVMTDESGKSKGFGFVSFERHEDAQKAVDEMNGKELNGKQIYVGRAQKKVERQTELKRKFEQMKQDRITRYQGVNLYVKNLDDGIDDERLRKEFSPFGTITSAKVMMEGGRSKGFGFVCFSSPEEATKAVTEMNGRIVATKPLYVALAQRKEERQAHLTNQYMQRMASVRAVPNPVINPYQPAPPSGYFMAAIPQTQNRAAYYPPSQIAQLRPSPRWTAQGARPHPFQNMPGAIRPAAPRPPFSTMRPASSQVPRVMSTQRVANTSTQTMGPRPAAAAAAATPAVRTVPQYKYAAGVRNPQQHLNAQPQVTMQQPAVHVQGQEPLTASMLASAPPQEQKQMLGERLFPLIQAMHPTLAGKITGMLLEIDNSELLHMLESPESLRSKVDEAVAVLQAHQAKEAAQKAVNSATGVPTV
UUG fidelity – alters start codon recognition fidelity in yeast | activity score, % at 18.7 µM | S. cerevisiae UUG-firefly luciferase reporter, luminescence/redox ratio | hit rate 0.13% among 350,000 | AID 602363;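 active = replicate mean at a twofold rise or more, about +100% in these data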;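 also: firefly luciferase made from a UUG start codon reports start codon fidelity; reporter light over untreated wells divided by growth signal over untreated wells; some hits fall short of that in this replicate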
Rce1 inhib – yeast Ras-converting enzyme inhibition | hit rate 0.27% among 290,000 | Q03530 | calls only | yeast membranes, quenched prenylated peptide cleavage fluorescence;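 active = fall in fluorescence gain of 50% or more versus controls, with final raw signal at or below 3038400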;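 also: plate controls were neutral control wells for no effect and wells lacking membranes for full effect; tested at 10 µM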
eIF4H FP inh – inhibitors of RNA binding by human eIF4H; Q15056; eIF4H fluorescence polarization binding assay; inhibition, % at 35 µM; hit rate 0.94% among 290,000; AID 2012;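 active = 50% or more with normal probe brightness, or confirmed in later tests; about a fifth of its hits are not listed in these tables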;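 also: calls also rest on retests at 20 µM and on dose response follow-up; 0% = protein and probe with vehicle and 100% = probe without protein; strong numbers were not always called active; many hits fall short of the cut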
HIV Env fusion – inhibitors of HIV Env-mediated cell fusion. HeLa-JRFL Env/CEM21 cell fusion, luciferase. hit rate 1.1% among 360,000. inhibition, % at 12.3 µM;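 active = mean replicate inhibition score of at least 50 and every replicate individually at or above 50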;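 also: 0% = plate neutral controls and 100% = maraviroc near 300 nM; one replicate is shown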
MT1-MMP act inh – blocks activation of human MT1-MMP; P50281; hit rate 0.061% among 360,000; HT1080 RFP-PRO-GFP cells, GFP/RFP ratio fluorescence, overnight; percent of plate control window, DMSO zero; GFP/RFP ratio change, % at 20 µM;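 active = GFP/RFP ratio change of at least 30% with cell ATP level not reduced by more than half and red fluorescence within 50% of control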; also: strong numbers were not always called active
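Assay system: HT1080 cells carrying an RFP-PRO-GFP reporter | Dosing: Single dose of 20 µM compound, 1% DMSO final | Incubation: Cells overnight before dosing, compound overnight, 37 °C, 5% CO2 | Evaluation: GFP/RFP fluorescence ratio | Control set: DMSO and RFP-L50D-GFP cell wells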
CSC inhib – cancer stem cell inhibition. cancer stem cell-like cells viability, luminescence. inhibition, % at 7.5 µM. hit rate 1.1% among 300,000;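 active = mean at 75% or more and at least half the replicates too; tested in HMLE shEcad cells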;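 also: 0% = median of negative and 100% = median of positive control wells; the first replicate is given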
MT1-MMP act inh RFP – second read-out of MT1-MMP act inh, no call of its own (marks repeat the call); RFP signal change, %; measured here: RFP expression control read;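 0 = vehicle wells; hits needed this value within 50% of zero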
Numbers without * were called inactive; i = inactive; · = no result given; & = joins results of further samples; [ ] = remark or other dose.

SMILES	PABP FP inh	UUG fidelity	Rce1 inhib	eIF4H FP inh	HIV Env fusion	MT1-MMP act inh	MT1-MMP act inh RFP	CSC inhib
COc1ccc2c(c1)[nH]c1c(N3CCSCC3)ncnc12	4	-17	i	-8	-49	8	-17	-4
Cc1cccn2c(=O)c3cc(C(=O)NCCc4ccccc4)sc3nc12	15	-7	i	7	-22	-1	-2	-5
COC(=O)CNC(=O)C(Cc1ccccc1)NS(=O)(=O)c1ccc2c(c1)c(=O)n(C)c(=O)n2C (centres undefined)	10	·	i	-4	7	-3	1	-8
O=C(COC(=O)c1ccc(Cl)nc1)Nc1cc(S(=O)(=O)N2CCCCC2)ccc1Cl	9	-10	i	5	7	-1	0	-13
CN(C)CCN(C(=O)c1cccc(N2C(=O)CCC2=O)c1)c1nc2ccc(Br)cc2s1	12	-1	i	4	5	1	3	-6
CC(=O)Nc1ccc(C(=O)OCCC(C)C)cc1	4	5	i	2	1	-1	3	2
O=C(c1cc(F)c(F)cc1Cl)N1CCN(S(=O)(=O)c2cccs2)CC1	·	-18	·	·	-8	7	2	·
COc1cccc(NS(=O)(=O)c2cc3[nH]c(=O)c(=O)[nH]c3cc2C)c1	4	1	i	-2	13	3	6	-8
c1ccc(CN(Cc2ccccc2)Cc2nnc(-c3cc4ccccc4[nH]3)s2)cc1	·	-11	·	·	-4	-1	-7	17
CC1(C)CC(=O)C(Br)=C(O)C1	7	·	·	-1	12	1	-3	·
CCCCNC(=O)c1ccc2c(c1)N(CC)C(=O)c1ccccc1S2(=O)=O	-13	-4	i	2	-94	2	2	-5
CCOc1ccc(C(=O)Nc2ccc(Cl)cn2)cc1Cl	-4	-21	·	-3	-222	0	-3	11
OC(c1cccs1)(c1cccs1)C1C[N+]2(CF)CCC1CC2 (centres undefined)	-3	-3	i	1	·	3	0	-1
COC(=O)[C@@H]1C[C@@]2(O)[C@H](O)[C@H](O)[C@H](O)C[C@H]2N1CC(c1ccccc1)c1ccccc1	-7	-19	i	-6	-7	-2	2	1
CCOC(=O)C(=NC(C)CC)NNc1cccc(C(F)(F)F)c1 (centres undefined)	-2	-9	i	7	21	-7	-6	23
CCC(=O)Nc1cccc(NC(=O)CSc2nnc(-c3ccc(NS(C)(=O)=O)cc3)n2C)c1	-1	-7	i	-1	·	6	3	-12
CC(=O)c1ccc(N2CCN(S(=O)(=O)c3ccc4c(c3)CC(=O)N4C)CC2)cc1	-6	-10	i	-8	5	0	1	-1
COc1ccc(C(=O)COC(=O)C2CCN(c3ccc(C(F)(F)F)cn3)CC2)c(OC)c1	·	-12	·	·	8	0	-3	·
O=C(COC(=O)/C=C/c1ccccc1Cl)NCCc1ccc(Cl)cc1Cl	16	·	i	-4	-2	-1	-1	-5
CCOC(=O)C1CCN(c2c(NCCN3CCN(c4ccccc4)CC3)c(=O)c2=O)CC1	-23	-12	i	-15	-11	-2	-1	-4
Cc1ccccc1N1CCN(C2CCCN(C(=O)c3cn4cccc(C)c4n3)C2)CC1 (centres undefined)	-4	-7	i	-4	10	2	-6	·
CN(CCNC(=O)C1CCN(c2ncnc3c2nc2n3CCCCC2)CC1)Cc1ccccc1	-11	6	i	2	12	3	5	-21
CCCCC(O)(CCCC)C(=O)NNc1ccccc1	6	-23	i	-6	1	2	6	-14
O=C1Nc2ccccc2/C1=C/c1cccnc1	-6	·	i	2	-19	-12	-12	-16
COc1ccc(CCC(=O)N2CCN(S(=O)(=O)c3ccc(OC(F)(F)F)cc3)CC2)cc1	·	23	·	·	42	-1	-1	10
O=S(=O)(c1ccc(OCC(O)CN2CCN(c3ccccc3O)CC2)cc1)N1CCOCC1 (centres undefined)	-6	-6	i	0	·	5	4	0
CCNCCNC(=O)c1c(O)c2ccccc2n(CC)c1=O	16	-7	i	0	-17	1	0	-7
CCN=c1scc(-c2ccc(F)cc2)n1/N=C/c1ccccn1	1	·	i	-7	-56	1	-18	3
COc1ccc(CCN2C(=NC(=O)CC(C)C)SC3CS(=O)(=O)CC32)cc1 (centres undefined)	4	-10	i	-4	·	2	-3	-8
O=C(Nc1ccc(NC(=O)c2ccncc2)cc1)c1ccncc1	4	·	i	-4	-8	·	·	1
CN1CCN(C(=O)C2=C[C@@H](C3CC3)C[C@@H](OCc3ccc(CO)cc3)O2)CC1	-8	-8&-7	i	-1	-1[16.7 µM]	3	8	-4
C=CCn1c(N)cc(=O)nc1SCC(=O)Nc1cccc2ccccc12	-4	-16	i	-1	2	-1	2	9
CCN(CC)C(=O)Cn1cc(S(=O)(=O)CC(=O)Nc2ccc(OC)c(OC)c2)c2ccccc21	-16	7	i	-6	0	-1	2	7
COc1ccc(CC(=O)N2CCOCC2)cc1OC	-8	-22	i	3	·	1	2	-15
O=C(Nc1ccc(F)cc1)c1ccc2[nH]c(=O)c(=O)[nH]c2c1	8	-9	i	2	-2	1	3	-2
O=C(CSc1ccccc1)Nc1ccc(N2CCOCC2)cc1	7	-17	i	-1	-40	4	2	-1
C(=C\c1ccccc1)/CSc1nnc(-c2cccnc2)n1Cc1ccco1	0	-20	i	6	-62	0	5	-2
COc1ccc(NC(=O)C2CCCCN2N)cc1OCC(C)C (centres undefined)	14	-23	i	5	·	4	6	-1
CSCCC(NC(=O)c1ccccc1Cl)C(=O)NNC(=O)c1csc(N2CCOCC2)n1 (centres undefined)	·	-13	i	·	-2	0	0	-5
CC(C)Oc1ccc(CNC(=O)Oc2ccccc2)cc1	4	-12	i	-12	-4	1	1	41
CC(=O)Nc1nnc(SCC(=O)Nc2ccc(N3CCOCC3)c(Cl)c2)s1	18	8	i	-9	-1	5	3	13
CC1=CC(C)(C)N(C(=O)CCl)c2ccccc21	-8	·	i	0	6	-6	1	-6
Cc1ccccc1NCc1ccc([N+](=O)[O-])s1	7	-18	i	-3	3	4	4	94*
CCCc1c(O)nc(SCC(=O)NCCc2ccc(OC)c(OC)c2)[nH]c1=O	7	-9	i	-3	·	1	2	-6
Cc1cc(=O)[nH]c(N/N=C/c2c[nH]c3ccccc23)n1	0	·	·	-4	-9	-9	-2	-16
COC(=O)COc1cccc(NS(=O)(=O)c2cccc([N+](=O)[O-])c2)c1	-4	·	i	-1	3	0	-3	-2
O=C(O)CCC(=O)N1CCN(c2nc(-c3ccccc3Cl)c3cc(Br)ccc3n2)CC1	9	4	i	2	·	3	-2	0
COc1ccc(C)cc1-n1nnnc1SCC(=O)NC1CC1	·	-13	·	·	·	-3	2	-6
Cn1c(=O)oc2cc(S(=O)(=O)Nc3ccc(C(=O)O)cc3)ccc21	·	-9	·	·	-29	-6	3	·
CCCCc1nc(C(N)=O)c2[nH]c(=O)n(-c3ccc(OC)c(OC)c3)c2n1	6	-13	i	1	·	0	0	-13
CCCCc1sc(-c2c(C#N)c(N)nc3c2CCCCC3)cc1[N+](=O)[O-]	5	-22	i	-4	4	-7	-9	41
Cc1cc(C(=O)NNc2cc(Cl)ccc2Cl)no1	2	1	i	-5	15	-1	7	27
COc1ccc2cc(S(=O)(=O)NCCCN3CCOCC3)ccc2c1	6	-23	i	-2	24	7	1	6
CCc1ccc(NC(=O)CCc2ccc(C)o2)cc1	7	-2	i	4	-47	4	3	29
COc1cc(C)ccc1OCc1cc(C(=O)NC2CCOCC2)no1	·	-3	·	·	-30	1	1	·
CC(C)(C)C(=O)N1CCC2CC1c1cc(Cl)ccc12 (centres undefined)	·	-14	·	·	-17	3	2	·
Cc1ccc(C(=O)NCC(=O)OCCCn2c(=O)[nH]c3ccccc32)cc1C	·	-17	·	·	9	0	4	·
COc1ccc(OCCCC(=O)NCCc2nc3ccccc3[nH]2)cc1	-7	·	i	4	9	-8	2	-6
O=C(NC(NCc1ccccn1)(C(F)(F)F)C(F)(F)F)c1ccco1	2	-7	i	17	·	-5	0	-5
COc1cc(C(=O)NCCNc2nc3c(C)cccc3cc2C#N)cc(OC)c1OC	·	-3	·	·	-43	8	-4	·
Following part.
SMILES	PABP FP inh	UUG fidelity	Rce1 inhib	eIF4H FP inh	HIV Env fusion	MT1-MMP act inh	MT1-MMP act inh RFP	CSC inhib
COc1ccc(CNC(=O)C(NS(=O)(=O)c2cccc3nsnc23)C(C)C)cc1 (centres undefined)	-5	-6	i	-2	6	0	-2	·
O=C(NCCN1CCN(C(=O)c2cccs2)CC1)C(=O)Nc1ccc(Br)cc1	-2	-9	i	-8	·	5	-11	11
Cc1ncc([N+](=O)[O-])n1CC(=O)Nc1cc(Cl)ccc1Cl	14	-3	i	2	15	3	0	-12
COc1cccc([C@@H]2CC=C(C(=O)O)[C@H](c3ccc(C)cc3)N2S(=O)(=O)c2ccc(C)cc2)c1	·	3	·	·	-55	1	0	·
Cc1nc2ccccn2c1C(=O)N=Nc1c(O)[nH]c2ccccc12	-11	-13	i	-11	-18	1	2	·
Cc1ccc(S(=O)(=O)N2[C@@H](c3ccccc3)C(C(=O)O)=CC[C@H]2c2ccc(Cl)c(Cl)c2)cc1	·	2	·	·	16	2	3	-3
COc1ccc(CNC(=O)c2ccc(S(=O)(=O)N3CC(C)CC(C)C3)cc2)cc1OC (centres undefined)	·	-1	·	·	-21	5	-4	·
CC(=O)N1CCN(CC(=O)NC(=O)Nc2ccc3c(c2)OCCO3)CC1	·	-6	i	·	-18	8	3	-4
CC1CCCCC12NC(=O)N(CC(=O)NC1CCCc3ccccc31)C2=O (centres undefined)	-9	·	i	-1	2	2	2	8
Cc1cc(C)nc(SCCC(=O)Nc2cccc3ccccc23)n1	-6	-7	i	-6	·	-4	-2	-2
C=CCC1c2cccc(C(=O)O)c2C(=O)N1c1cccc(OC)c1 (centres undefined)	-4	-9	i	-8	-6	0	-1	-11
CCN(CC)CC(=O)Nc1cc(N(C)C)nc2ccccc12	13	-2	i	6	3	-2	6	-7
COc1ccc(N2CCN(C(C)C(=O)N3CCc4ccccc43)CC2)cc1 (centres undefined)	0	-5	i	14	3	-4	-2	-2
Cc1cc(C)c(NC(=O)NC2CCCCC2)c(C)c1	9	·	i	3	-5	1	4	-1
O=C(/C=C/c1cccc(Cl)c1)NCc1ccncc1	-1	-31	i	-11	11	0	1	-38

Rewritten with two lines to a compound: entries from further up
Below each SMILES: PABP FP inh	UUG fidelity	Rce1 inhib	eIF4H FP inh	HIV Env fusion	MT1-MMP act inh	MT1-MMP act inh RFP	CSC inhib
CCN(CC)C(=O)Cn1cc(S(=O)(=O)CC(=O)Nc2ccc(OC)c(OC)c2)c2ccccc21
  -16	7	i	-6	0	-1	2	7
CC1=CC(C)(C)N(C(=O)CCl)c2ccccc21
  -8	·	i	0	6	-6	1	-6
Cc1ccccc1N1CCN(C2CCCN(C(=O)c3cn4cccc(C)c4n3)C2)CC1 (centres undefined)
  -4	-7	i	-4	10	2	-6	·
COc1ccc(C(=O)COC(=O)C2CCN(c3ccc(C(F)(F)F)cn3)CC2)c(OC)c1
  ·	-12	·	·	8	0	-3	·

(next part)
SMILES	PABP FP inh	UUG fidelity	Rce1 inhib	eIF4H FP inh	HIV Env fusion	MT1-MMP act inh	MT1-MMP act inh RFP	CSC inhib
C=CCN1C2CCCC1CC(NC(=O)Nc1cccc(C(C)=O)c1)C2 (centres undefined)	-7	7	i	-8	-65	1	1	2
O=C1CSc2ccc(S(=O)(=O)NCc3ccc(F)cc3)cc2N1	10	-11	i	0	-3	-2	1	-19
COc1ccc(C(CNC(=O)c2cccc(N(C)C)c2)N2CCCC2)cc1 (centres undefined)	3	-13	i	-12	-90	-1	-2	-5
CC(=O)Nc1ccc(S(=O)(=O)N2CCN(CCc3ccccc3)CC2)cc1	0	4	i	-3	-1	-4	-6	-9
O=C(O)C12CC3CC(C1)CC(n1ncc(N4CCN(c5ccccc5)CC4)c(Cl)c1=O)(C3)C2	-9	11	i	-18	-7	6	7	-14
O=C(COC(=O)C1CCN(S(=O)(=O)c2cccs2)CC1)Nc1ccccc1	-6	5	i	-8	11	0	-1	-8
COc1ccc(C2=CC(=O)OC3(CCCCC3)O2)cc1	-13	-10	i	-14	-56	-1	2	-5
CCOC(=O)c1c(C)nc2c3ccccc3ccn12	11	-25	i	3	i	1	-3	·
